HCMV UL50-53 inh: inhibitors of HCMV UL50-UL53 interaction, biochemical, HTRF. AID 1918969, 2023. actives 0.15% (n = 190,000). inhibition, % (concentration not given with the values). HCMV UL50-UL53 nuclear egress complex (human cytomegalovirus). normalized percent inhibition;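 active means both replicates at 50% or more, plus weaker picks with an unusually low signal ratio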;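 further: stock transfer was 100 nL into about 20 µL; 0% = negative control wells and 100% = wells with untagged competitor protein; inactives centre near -12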
GIV Gai3 FP: inhibitors of GIV peptide binding to Galpha-i3, primary screen, biochemical, fluorescence polarization, FITC-GIV GBA peptide, rat Galphai3 | actives 0.42% (n = 210,000) | Guanine nucleotide-binding protein G(i) subunit alpha-3 (Rattus norvegicus), P08753 | 90 min; stronger effect = lower value; scaled: aluminum fluoride 0%, vehicle 100% | percent of control (FP), % (test concentration not listed) | AID 1224905, 2016;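 active means replicate mean at 85% of control or lower, very high polarization wells dropped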;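 further: wells of about 15 µL received 100 nL stock; the first replicate is given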
Target sequence (P08753 whole entry, looked up): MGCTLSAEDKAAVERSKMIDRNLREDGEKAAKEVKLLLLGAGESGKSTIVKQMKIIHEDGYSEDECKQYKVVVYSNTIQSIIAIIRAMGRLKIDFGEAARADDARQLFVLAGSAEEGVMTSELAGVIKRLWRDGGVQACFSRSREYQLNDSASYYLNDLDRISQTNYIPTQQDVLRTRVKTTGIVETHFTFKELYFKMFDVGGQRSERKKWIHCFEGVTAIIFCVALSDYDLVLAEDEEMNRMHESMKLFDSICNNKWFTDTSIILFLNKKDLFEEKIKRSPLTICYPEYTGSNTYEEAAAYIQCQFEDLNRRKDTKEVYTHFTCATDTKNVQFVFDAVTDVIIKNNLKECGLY
Sa growth 42C: S. aureus growth inhibition at 42 and 30 °C, primary screen, LtaS inhibitor project, RN4220, two temperatures; OD600, 20 h, 42 °C; stronger effect = lower value; relative growth, % (no concentration beside the values); actives 0.53% (n = 170,000); AID 720641, 2013;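 active means growth at 42 °C up to 50% and 20 or more points under that at 30 °C, or under 10% at both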;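 further: 300 nL library stock went into each well; scaled to the means of positive and negative controls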
Sa growth 42C second temp: further read-out of Sa growth 42C, marked with its call; relative growth, %; measured here: growth at 30 °C;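 optical density after 20 h as mean of two plates; 100% = untreated growth and lower means inhibition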
* marks the source's active call; other numbers are inactive results; / = not tested or not shown; & = joins results of further samples. Hits appear at their usual frequency, and some 0.79% of all compounds hit somewhere here.

SMILES | HCMV UL50-53 inh | GIV Gai3 FP | Sa growth 42C | Sa growth 42C second temp
Cc1c(C#N)c(Sc2ccccc2)nc2ccccc12 | -1.2 | 101.8 | 107.0 | 89.8
CC1=Nc2ccccc2Sc2c1c(=O)n(-c1ccccc1)c1ccccc21 | 2.0 | / | 1.8* | -0.1*
Cc1cccc(-c2nccc(Nc3cccc(C(=O)NCC(C)C)c3)n2)c1 | -11.2 | 104.5 | / | /
COc1cccc(C(=O)N2CCN(Cc3c[nH]c4ccccc34)CC2)c1 | -10.0 | 95.9 | / | /
O=C(CNC(=O)c1ccccc1)OC1CCCCC1 | -8.6 | 99.5 | 91.5 | 85.7
NC1=NN(c2cccc(C(=O)O)c2)C(=O)C1 | -22.0 | 103.0 | 101.8 | 77.3
CCc1ccc(NC(=O)C2CCCN(S(=O)(=O)c3ccc4c(c3)oc(=O)n4C)C2)cc1 (stereo not given) | -32.1 | 105.2 | 100.1 | 88.4
CCOC(=O)N1CCN(C(=O)CC2C(=O)N(Cc3ccccc3)C(C)c3nc4ccccc4n32)CC1 (stereo not given) | -10.4 | 97.3 | 107.7 | 89.2
Cc1ccc(S(=O)(=O)N2CCCCCC2)cc1C | / | 107.4 | 109.9 | 106.0
O=C(Nc1ccc2nc(C3CC3)n(Cc3ccccc3)c(=O)c2c1)C1CC1 | -17.2 | 99.3 | 96.5 | 89.4
CCOC(=O)c1cc(-c2ccc(C#N)cc2)nc2c1c(C)nn2CCC#N | -10.5 | / | 86.7 | 89.8
CCOc1cc(-c2cccc(Cl)c2)nc2ccc(C(=O)NCCc3c[nH]c4ccc(OC)cc34)cc12 | 1.6 | 104.6 | / | /
O=c1oc2ccccc2n1-c1nc2ccccc2o1 | 0.7 | 105.5 | 100.8 | 95.8
Cc1ccc2c(=O)c(CN3CCCC3)c(C)[nH]c2c1C | / | 100.0 | 93.1 | 92.4
Fc1ccccc1-c1ccc(SCc2nc(-c3cccc(Cl)c3)no2)nn1 | 1.8 | 111.4 | / | /
CS(=O)(=O)/C(C#N)=C\c1ccc(Cl)s1 | 9.7 | 106.2 | 103.5 | 104.7
NC(=O)CNC(=O)c1cccc(Cl)c1 | -4.7 | / | 95.5 | 88.3
Cc1ccc(CNC(=O)c2ccc(NC(=O)c3nsc4ccccc34)cc2)cc1 | / | 99.1 | 92.0 | 79.9
CN1c2ccccc2Oc2nnc(NCc3ccccc3)cc21 | / | 103.5 | 100.8 | 76.3
COc1cc(C(=O)NS(=O)(=O)c2ccccc2C)ccc1Cc1cn(C)c2ccc(NC(=O)OC3CCCC3)cc12 | -42.1&-55.0&-2.4&-2.4&-2.7 | 97.4 | 76.1&21.2 | 65.4&10.1
c1ccc2c(c1)CC(CN1CCCCC1)O2 (stereo not given) | -3.1 | / | 95.7 | 87.4
COc1ccc(-n2nnc3c(SCC(=O)N4CCc5ccccc54)ncnc32)cc1 | / | 102.1 | 125.1 | 94.1
CCOc1ccc(S(=O)(=O)N(CC)CC(=O)NCc2cccnc2)cc1C | -6.5 | 105.0 | 90.2 | 80.3
O=C1CCCC/C1=C\Nc1nc(-c2ccccc2)cs1 | -17.4 | / | 92.8 | 86.9
CC(C)n1c(CCC(=O)O)ccc1-c1ccc(F)cc1 | -4.1 | 116.1 | 125.6 | 97.4
COc1ccccc1N(Cc1nc2nc(C)cc(=O)n2[nH]1)C(=O)CC(C)C | -6.2 | 103.0 | / | /
NS(=O)(=O)c1ccc(NC(=O)CSCc2ccccc2)cc1 | -0.3 | / | 94.4 | 90.4
O=C(Nc1ccc2c(c1)OCCO2)Nc1cccs1 | -2.4 | 105.6 | 81.8 | 73.9
COc1ccc(C2c3[nH]c4ccc(OC)cc4c3CCN2C(=O)Nc2ccc3c(c2)OCCO3)cc1 (stereo not given) | -3.9 | 102.1 | / | /
CC1=C(C(=O)OC2CCCCC2)C(c2coc3ccc(Cl)cc3c2=O)C2=C(CCCC2=O)N1 (stereo not given) | -19.9 | 105.4 | / | /
O=C(CCCCN1CCCCC1)c1ccccc1 | -5.7 | / | 92.6 | 82.3
CC(=O)Nc1ccc(OCC(=O)Nc2cc(F)ccc2C)cc1 | -34.6 | / | 94.8 | 85.6
O=C(NC1CCSC1)c1cccc(Cl)c1 (stereo not given) | -12.4 | 97.9 | 103.2 | 82.8
CCOc1ccccc1NC(=O)CN(CCc1ccccc1)S(=O)(=O)c1ccc(C)cc1 | -1.6 | 110.6 | 99.2 | 105.2
O=C(C1CCCN(c2nc3ccccc3n3cccc23)C1)N1CCN(c2ccccc2)CC1 (stereo not given) | -17.0 | 102.8 | / | /
O=C(CN(C(=O)c1ccc(Cl)nc1)C1CCCC1)NCc1ccc2c(c1)OCO2 | 5.1 | 101.3 | 97.9 | 79.6
CCOC(=O)c1sc2ncn(CC(=O)Nc3cc(C)cc(C)c3)c(=O)c2c1C | -22.5 | 102.3 | 105.9 | 88.8
CCCN(CCC)CCCNC(=O)Cn1cnc2sc(C)c(S(=O)(=O)N3CCC(C)CC3)c2c1=O | -5.9 | 103.8 | 84.8 | 87.2
O=C(Nc1cccc(Cl)c1)Nc1ccccn1 | -22.4 | 102.8 | 61.4 | 70.0
CC1CCN(C(=O)c2ccc3c(=O)nc4c(-c5ccccc5)n[nH]n4c3c2)CC1 | / | 122.8 | 92.3 | 96.2
COC(=O)C1=C(C)N(c2ccc(OC)c(OC)c2)C(=O)/C1=C\c1cc(C)n(-c2ccc(F)cc2)c1C | / | 101.7 | 97.5 | 82.8
Cc1ccc(Cn2cc(CCC(=O)NCC(C)c3ccccc3)c3ccccc32)cc1 (stereo not given) | / | 111.2 | 97.7 | 92.7
CCOc1ccc(-c2nc(CNC(=O)Nc3ccccc3)c(C)o2)cc1 | / | 108.3 | 112.9 | 89.9
CC(C)(C)C(=O)Nc1nccs1 | 7.9 | / | 101.3 | 95.7
CCN(C(=O)Cn1cnc2sc(C)c(S(=O)(=O)N3CCN(c4ncccn4)CC3)c2c1=O)c1ccccc1F | -11.6 | 107.3 | 106.9 | 89.4
O=c1cc(C2CCN(C(=S)Nc3cccc(Cl)c3)CC2)[nH]n1-c1ccccc1 | / | 108.9 | 97.2 | 90.2
CCOC(=O)C1(C/C(C)=N/NC(N)=S)CC(C)(C)OC1=O (stereo not given) | 4.6 | 111.4 | 100.2 | 93.9
CCOC(=O)C1=C(CC)Nc2ccccc2N=C1NC(=O)c1ccc(=O)n(C)n1 | -16.6 | / | 86.7 | 89.2
CCOC(=O)c1ccc(N=Cc2ccc(O)c(OC)c2)cc1 | 3.0 | 103.1 | 109.1 | 82.0
CCCNC(=O)c1ccc2c(=O)n3nc(Nc4ccccc4CC)sc3nc2c1 | 6.8 | 102.5 | 93.3 | 104.8
CCOC(=O)N1CCC(NC(=O)Cn2c3ccccc3c(=O)c3cc(Cl)ccc32)CC1 | -20.7 | 100.4 | / | /
O=C(CSc1nn(-c2ccccc2)c(=S)s1)Nc1nccs1 | 0.5 | 105.5 | 109.3 | 101.2
CN(Cc1ccccc1)C(=O)CSc1c2c(nc3ccc(Cl)cc13)CCCC2 | 2.8 | 107.5 | 61.4 | 64.1
O=C(Oc1ccc(N(C(=O)c2ccccc2)S(=O)(=O)c2cccs2)cc1)c1ccccc1 | -6.8 | / | 104.5 | 88.8
Cc1ccc(C(=O)N(C)Cc2ccccc2)cc1 | / | 98.6 | 88.4 | 75.7
CC(NC(=O)Cn1c(-c2cccs2)cc2ccccc21)c1ccccc1 (stereo not given) | -19.3 | 102.4 | 92.4 | 89.2
Cc1cc(NC(=O)N2CCC3(CC2)CC(=O)c2ccccc2O3)ccc1Br | -3.7 | 99.3 | / | /
CCC(=O)Nc1ccccc1-c1ccccc1NC(=O)CC | 9.8 | / | 72.6 | 92.8
O=C(Cn1cc(S(=O)(=O)Cc2ccccc2)c2ccccc21)N1CCCC1 | -22.0 | 100.6 | 104.7 | 85.3
O=c1c(-c2ccccc2)nc(-c2ccccc2)cn1O | -43.2 | 105.0 | / | /
(listing goes on)
SMILES | HCMV UL50-53 inh | GIV Gai3 FP | Sa growth 42C | Sa growth 42C second temp
C/C(N)=C(/C#N)C(=O)CSCc1ccccc1C | -5.9 | / | 84.6 | 94.9
COc1ccc(-c2nc(SCC(=O)N3CCC(c4ccccc4)=N3)n[nH]2)cc1 | -32.6 | / | 100.4 | 89.7
COc1ccc(C2C(C(=O)NCCC3=CCCCC3)c3ccccc3C(=O)N2C)cc1 (stereo not given) | / | 101.1 | 110.8 | 88.3
COc1ccc(C2C=C(c3ccccc3)Nc3nc(NC(=O)/C=C/c4ccc(Cl)cc4)nn32)cc1 (stereo not given) | -2.5 | 106.8 | 118.9 | 74.9
O=C(/C=C/c1ccc(OCc2ccccc2)cc1)N1CCOCC1 | -13.0 | 98.6 | / | /
CN1C(C(=O)N2CCN(Cc3ccccc3)CC2)=CC(c2ccc(F)cc2)=NS1(=O)=O | / | 97.3 | 88.2 | 80.2
N#C/C(C(=O)N1CCCCC1)=C1/Nc2ccccc2S1 | -23.1 | 107.7 | 57.0 | 19.5
Cc1nc(N2CCOCC2)c2sc(=S)n(-c3ccccc3)c2n1 | 24.8 | 102.4 | 90.3 | 85.8
CC1CCCN(C(=O)c2cc3c(=O)n(C)c4ccccc4c3s2)C1 (stereo not given) | 19.7 | 105.3 | 96.1 | 98.2
COc1ccc(NCC(=O)Nc2ccc(F)cc2)cc1 | 12.5 | 103.6 | 94.0 | 94.5
Cc1nc2c(c(C)nn2C)c(C)c1CCC(=O)NCCc1ccccc1 | -5.4 | 103.9 | 95.3 | 83.0
COC(=O)c1ccc(NC(=O)c2ccc(C)cc2)cc1 | -25.6 | 101.3 | 90.5 | 83.1
Cc1oc(C(=O)O)cc(=O)c1C | -6.8 | 98.1 | 108.9 | 91.4
CCC(=O)C1=C(c2ccc(F)cc2)N(C(=O)CC)n2c(nnc2C2CCCCC2)S1 | / | 101.2 | 88.0 | 94.1
S=C(NCCN1CCCCC1)NCC1CCCO1 (stereo not given) | 2.1 | 100.8 | 102.7 | 101.5
CC1CC(C)CN(S(=O)(=O)c2ccc(NN)nc2)C1 (stereo not given) | -1.3 | / | 85.4 | 95.5
Cc1ccc(CNC(=O)c2ccc3c(c2)CCN3S(=O)(=O)c2ccccc2)cc1 | -16.6 | 99.8 | 105.0 | 96.7
COCC(=O)N(C)CCc1noc(COc2ccc(OC)cc2)n1 | -13.7 | 107.1 | / | /
FC(F)(F)c1cccc(N2CCN(C3CCCCCC3)CC2)c1 | 2.8 | 107.7 | 97.1 | 104.1
O=C(CSc1ccc(-c2ccccc2)nn1)NCC1CCCO1 (stereo not given) | -30.3 | 104.3 | 93.1 | 88.5
O/N=C/c1ncc(C(F)(F)F)cc1Cl | -20.2 | 107.1 | / | /
Cc1cccc(NC(=O)Nc2cccs2)c1C | -37.6 | 105.8 | 94.6 | 82.2
CC1CCC(NC(=O)C2(C)Cn3c(cc4occc43)C(=O)N2C2CCC(C)CC2)CC1 (stereo not given) | -6.6 | 106.3 | / | /
CCOc1ccc(-c2c(C)nn3c(-c4ccccc4)c(C(=O)NCCOC)cnc23)cc1OCC | / | 102.8 | 105.3 | 94.8
Cc1cccc(NC(=O)C(=O)NCC(c2ccc3c(c2)OCO3)N2CCN(C)CC2)c1C (stereo not given) | / | 99.3 | 108.7 | 88.5
OC1(C#CCN2CCOCC2)CCCCC1 | -11.1 | 104.5 | 108.2 | 94.5
CCOC(=O)c1c(C)oc2ccc(OCC(=O)c3ccc(Br)cc3)cc12 | -21.9 | 108.0 | / | /
C=CCN(C(=O)Cc1c(C(=O)O)[nH]c2ccccc12)c1ccccc1 | -1.0 | 104.1 | 107.8 | 91.1

High-throughput results: PubChem BioAssay, ICCB-Longwood Screening Facility, Harvard Medical School
